GIRK2 act: activators of human GIRK2 potassium channels; P48051; HEK293-GIRK2 thallium flux, Thallos fluorescence; calls only for hits at 25 µM; 63,000 compounds, 0.05% hits;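 active means among the strongest 0.2% of first-round signals and kept after retests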;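 further: first round at about 10 µM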
Target sequence (P48051 whole entry, looked up): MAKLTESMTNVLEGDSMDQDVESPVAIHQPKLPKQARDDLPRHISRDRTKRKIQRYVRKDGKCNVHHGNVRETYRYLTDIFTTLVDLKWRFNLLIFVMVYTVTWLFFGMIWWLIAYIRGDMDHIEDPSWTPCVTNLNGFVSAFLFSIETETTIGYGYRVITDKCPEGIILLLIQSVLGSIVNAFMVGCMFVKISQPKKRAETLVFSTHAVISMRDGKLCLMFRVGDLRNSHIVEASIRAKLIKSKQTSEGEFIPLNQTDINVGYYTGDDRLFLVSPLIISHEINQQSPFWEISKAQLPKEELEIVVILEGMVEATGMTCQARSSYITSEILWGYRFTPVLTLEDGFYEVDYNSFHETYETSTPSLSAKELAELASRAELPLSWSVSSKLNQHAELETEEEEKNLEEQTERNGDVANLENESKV
Calls only; i = inactive. These rows are one share of the data, so the mix of outcomes need not match the whole.

SMILES	GIRK2 act
CCc1ccc(CNC(=O)c2ccc3c(=O)nc4c(-c5ccccc5)n[nH]n4c3c2)cc1	i
CS(=O)(=O)Nc1cccc(NC(=O)C2CSCCC(=O)N2)c1 (centres undefined)	i
NC(=O)c1ccccc1OCC#CCNC(=O)c1ccccc1C(F)(F)F	i
CC(C)(C)OC(=O)Cn1cnc2c(-c3ccccc3)csc2c1=O	i
CCSc1ccccc1C(=O)N1CCN(Cc2nnnn2-c2ccc(Cl)cc2)CC1	i
Cc1ccc2nc(N(CCN3CCOCC3)C(=O)C3=COCCO3)sc2c1	i
CN(C)c1cccc(C(=O)N2CCC(Cn3c(C(F)(F)F)nc4ccccc43)CC2)c1	i
COCC(C)NC(=O)CCc1c(C)nn(-c2nc(C)c(C)c(=O)[nH]2)c1C (centres undefined)	i
COc1c(C)cnc(Cn2cc(-c3nc(-c4ccccc4Cl)no3)ccc2=O)c1C	i
Cn1cc(C(=O)NCCc2ccccc2)c(S(=O)(=O)N2CCN(c3cccc(Cl)c3)CC2)n1	i
O=C(NC1CCN(Cc2noc(-c3ccccc3)n2)C1)c1ccc(F)c(F)c1 (centres undefined)	i
CN1C(=O)C=C(Nc2cccc(C(=O)O)c2)C1=O	i
Nc1c(C(=O)NCC2CCCO2)c2nc3ccccc3nc2n1/N=C\c1ccco1 (centres undefined)	i
COc1cccc2cc(C(=O)NCc3cc(C)oc3C)oc12	i
CS(=O)(=O)N1CCC(C(=O)N2CCN(c3nnc(SCC(N)=O)s3)CC2)CC1	i
CCSc1nnc(NC(=O)CN(C)c2nc3c(OC)cccc3s2)s1	i
N#Cc1ccc(C(=O)NC2CC(=O)N(C3CC3)C2)cc1 (centres undefined)	i
N#Cc1ccc(OC2CCN(C(=O)c3cncc(Br)c3)CC2)nc1	i
COc1cc(Nc2nccc(Nc3ccc4c(C)[nH]nc4c3)n2)cc(OC)c1OC	i
CCOC(=O)N1CCN(S(=O)(=O)CCNC(=O)c2ccc(F)cc2)CC1	i
O=S1CCN(Cc2ccc(-c3ccc4ncnc(Nc5ccc(OCc6cccc(F)c6)c(Cl)c5)c4c3)o2)CC1	i
Cc1noc(CNC(=O)C2CCN(C(=O)CC(c3ccccc3)c3ccccc3)CC2)n1	i
Cc1nnc(NC(=O)C(C)Cn2nc(-c3cccs3)ccc2=O)s1 (centres undefined)	i
O=C(NCC(F)(F)F)C1CCN(C(=O)CCn2cnc3ccccc3c2=O)CC1	i
COc1ccc(Cl)cc1NC(=O)Cn1nc(N2CCSCC2)c2ccccc2c1=O	i

The list goes on.
SMILES	GIRK2 act
COc1ccc(-c2cc3c(=O)n(CC(=O)Nc4ccc(C)c(Cl)c4)ccn3n2)cc1	i
CCSc1ccccc1C(=O)NCC1(c2ccccc2OC)CCOCC1	i
Cc1nc2sc3c(N)ncnc3c2c(C)c1C	i
Cc1ccc2nc(-c3ccc(NC(=O)c4cn(C)nc4C)cc3)sc2c1	i
CN1C(=O)c2oc3ccc(Cl)cc3c(=O)c2C1c1ccccc1F (centres undefined)	i
CC(O)(CNC(=O)c1ccc(S(=O)(=O)N2CCCC2)cc1)c1ccco1 (centres undefined)	i
Cc1cccc(N(C)S(=O)(=O)c2ccsc2C(=O)Nc2ccc(F)cc2)c1	i
Cn1nc(-c2cccs2)cc1C(=O)N1CCCC(c2nnc(C(F)(F)F)o2)C1 (centres undefined)	i
Cc1cc(NC(=O)Cc2ccc([N+](=O)[O-])cc2)n(-c2nc(-c3ccc(F)cc3)cs2)n1	i
COc1cc(C)c(C(=O)NC2C(C)OC(OC3CCC(C)C4C3C=C(C)C3/C(C)=C/CC/C(C)=C/C5(C)C=C(C(=O)O)C(C)CC56OC(=O)C(=C(O)C34C)C6=O)C(O)C2(C)O)c(O)c1 (centres undefined)	i
CO[C@@H]1[C@H](N(C)C(=O)c2ccccc2)C[C@H]2O[C@]1(C)n1c3ccccc3c3c4c(c5c6ccccc6n2c5c31)C(=O)NC4	i
COc1ccc(Cl)cc1NC(=O)c1cc(S(=O)(=O)N2CCN(c3ccccc3F)CC2)ccc1F	i
Cc1ccc(C(O)=C2C(=O)C(=O)N(c3ccc(S(N)(=O)=O)cc3)C2c2cccc(Cl)c2)cc1 (centres undefined)	i
Cc1ccc(C)c(NC(=O)Cn2cnc3c(C(N)=O)nsc3c2=O)c1	i
Cc1cc(C)c2c(n1)sc1c(N3CCC(C(=O)NCc4ccc5c(c4)OCO5)CC3)ncnc12	i
O=C(NC1CCCC1)c1ccc(Oc2nccnc2N2CCCCC2)cc1	i
CCC(=O)N1CCN(Cc2nnnn2-c2ccccc2)CC1	i
O=C(CSc1nc2[nH]ncc2c(=O)n1-c1ccccc1)Nc1ccc(F)c(Cl)c1	i
C=CCNC(=O)Nc1nc2c(C)c(Cl)ccc2s1	i
COC(=O)Cn1c(=O)c2c(nc3n2CCCN3c2ccc(Oc3ccccc3)cc2)n(C)c1=O	i
CN(CCO)CC1COCCN1C(=O)c1ccc2c(c1)OCO2 (centres undefined)	i
O=C(Cc1cc(=O)[nH]c(SCc2ccccc2F)n1)NCc1ccco1	i
CCc1ccc(-n2nnc(C(=O)N3CCC4(CC3)OCCO4)c2-c2cccnc2)cc1	i
O=C(c1cccc2ccccc12)N1CCC(Oc2ccccn2)CC1	i
O=C1OC2CC1N(C(=O)/C=C/c1ccco1)C2 (centres undefined)	i

More records:
SMILES	GIRK2 act
O=C(CSCc1ccccc1)NCC1CCN(Cc2ccco2)CC1	i
C/C=C/C(=O)N1CCC(CSc2ccc(OC)cc2)CC1	i
O=C(Nc1ccc(Cl)cc1-c1nc2ccccc2[nH]c1=O)c1ccc(Br)o1	i
COc1ccc2nc(-n3nc(C)cc3NC(=O)c3c(F)cccc3F)sc2c1	i
Cn1nnn(-c2ccc(NC(=O)c3nc4ccccc4s3)cc2)c1=O	i
CC1CN(C(=O)C(C)NS(=O)(=O)c2cccc(Cl)c2)CC(C)O1 (centres undefined)	i
O=C(O)Cc1nc(-c2ccccn2)n[nH]1	i
COCCOCC1CCN(S(=O)(=O)c2cccc(Cl)c2)CC1	i
CC(=O)Nc1ccc(NC(=O)c2nnn(-c3ccccc3)c2-c2ccccc2)cc1	i
Cc1ccc(S(=O)(=O)N(Cc2ccc(F)cc2)C(=O)N2CCN(C)CC2)cc1	i
O=C(Nc1nc2c(s1)COCC2)c1ccccc1C(F)(F)F	i
Cc1ccc(CNC(=O)Cn2c(N3CCOCC3)nc(C)cc2=O)cc1	i
COC(=O)/C=c1/s/c(=C(/C#N)C(=O)NCCc2ccc(OC)c(OC)c2)n(-c2ccccc2)c1=O	i
O=C(CSC1=NNC2C3CC(c4ccc(F)cc4)NN3C=CN12)Nc1ccccc1Cl (centres undefined)	i
O=C(NCCOc1ccc2c(c1)OCO2)C1CC1	i
CC1Oc2ccccc2OC1C(=O)Nc1ccc(-n2nnc(C(N)=O)n2)cc1 (centres undefined)	i
O=C(N1CC(c2nc(C3CC3)no2)C1)C1(c2ccc(Cl)cc2)CCCC1	i
O=C(NCCO)C(=O)Nc1ccc(N2CCCS2(=O)=O)cc1	i
Cc1ccc(C)c(-c2nnc(NC(=O)Nc3ccccc3F)o2)c1	i
O=C(Nc1ccc(Cl)c2ncsc12)C1CCCN1S(=O)(=O)c1cccs1 (centres undefined)	i
Cc1ccc2[nH]c(C(=O)N3CCN(C4CCCCC4)CC3)c(NC(=O)c3ccc(F)cc3)c2c1	i
CS(=O)(=O)N1CCC(c2nn(CC(=O)c3ccccc3)c(=O)n2-c2cccs2)CC1	i
Cc1nc(N2CCN(C(=O)CCCc3ccccc3)CC2)cc(-n2cccn2)n1	i
CCCc1nnsc1C(=O)N1CCN(c2nc3c(C)cccc3s2)CC1	i
O=C(CN1CCN(c2ccc3c(c2)OCO3)C1=O)NCCc1ccc(F)cc1	i

Following part
SMILES	GIRK2 act
O=C(c1ccc(C(F)(F)F)cc1)N1CCC(Cn2ccnc2-c2ccccc2)CC1	i
Clc1cccc(/C=C/c2nn3c(-c4ccccc4)nnc3s2)c1	i
CN1CCN(c2cc(NC(=O)Cn3ccc4ccccc43)ncn2)CC1	i
COc1cc(OC)cc(-n2nnc(-c3nc(-c4ccc(Br)cc4)cs3)c2N)c1	i
O=C(c1cnc2ccccc2n1)N1CCC(c2ccccc2)C1 (centres undefined)	i
Cn1nc(N2CCC(C(=O)NCCc3ccc(Cl)cc3)CC2)ccc1=O	i
COc1ccc(-c2cc3c(=O)n(CC(=O)Nc4ccc(C(C)=O)cc4)ccn3n2)cc1OC	i
COc1ccccc1-c1c(C(F)(F)F)oc2c3c(ccc2c1=O)OCN(CCc1cccs1)C3	i
Cc1ccc(NC(=O)c2ccc(F)c(F)c2)cc1N1CCCC1=O	i
CCc1ccc(NC(=O)c2cc3cc(Cl)ccc3oc2=O)cc1	i
COCCNC(=O)NCC1CCN(Cc2cccs2)CC1	i
COc1ccc(CNC(=O)N2CCC(COCc3ccc(F)cc3)CC2)cc1	i
CCOc1ccc(-n2ccnc(NC(=O)Nc3ccc(F)cc3)c2=O)cc1	i
COCCn1nnn(-c2ccc(NC(=O)c3cc(C)on3)cc2)c1=O	i
C=CCNC(=O)Nc1nc(C)c(C(=O)OCC)s1	i
CCOc1cccc(-c2noc(CN3C(=O)COc4cc(Cl)ccc43)n2)c1	i
CCN(CC)C(=O)Oc1ccc2c(=O)c(Oc3ccccc3OC)c(C(F)(F)F)oc2c1	i
Cc1nsc(C(=O)N2CCN(c3ncccn3)CC2)n1	i
CC(=O)N1N=C(c2ccco2)CC1c1cn(-c2ccccc2)nc1-c1cccs1 (centres undefined)	i
c1ccc(-c2cc(N3CCN(c4ccccc4)CC3)ncn2)cc1	i
CC(=O)C(C)n1c(CN2CCN(c3cccc(Cl)c3)CC2)nc2c1c(=O)n(C)c(=O)n2C (centres undefined)	i
Cc1ccc(-n2ncc3c(=O)n(Cc4nc(-c5ccc(F)c(Cl)c5)no4)cnc32)cc1	i
O=C(CCCn1cccc1)NCc1cccs1	i
COc1cccc(CNC(=O)Cn2c(=O)cc(-c3nc(C4CC4)no3)c3ccccc32)c1	i
COc1ccc(-c2cc3nc(C)cc(NCc4ccccc4)n3n2)cc1OC	i

18 entries out of the list, sorted by molecular weight, low to high.
SMILES	GIRK2 act
COc1cccc2cc(C(=O)NCc3cc(C)oc3C)oc12	i
c1ccc(-c2cc(N3CCN(c4ccccc4)CC3)ncn2)cc1	i
Cc1ccc(C)c(-c2nnc(NC(=O)Nc3ccccc3F)o2)c1	i
CS(=O)(=O)Nc1cccc(NC(=O)C2CSCCC(=O)N2)c1 (centres undefined)	i
Cn1nnn(-c2ccc(NC(=O)c3nc4ccccc4s3)cc2)c1=O	i
Cc1ccc(CNC(=O)Cn2c(N3CCOCC3)nc(C)cc2=O)cc1	i
O=C(Cc1cc(=O)[nH]c(SCc2ccccc2F)n1)NCc1ccco1	i
NC(=O)c1ccccc1OCC#CCNC(=O)c1ccccc1C(F)(F)F	i
COc1ccc(CNC(=O)N2CCC(COCc3ccc(F)cc3)CC2)cc1	i
CCOC(=O)N1CCN(S(=O)(=O)CCNC(=O)c2ccc(F)cc2)CC1	i
Cc1ccc2nc(N(CCN3CCOCC3)C(=O)C3=COCCO3)sc2c1	i
O=C(c1ccc(C(F)(F)F)cc1)N1CCC(Cn2ccnc2-c2ccccc2)CC1	i
CCc1ccc(-n2nnc(C(=O)N3CCC4(CC3)OCCO4)c2-c2cccnc2)cc1	i
O=C(Nc1ccc(Cl)c2ncsc12)C1CCCN1S(=O)(=O)c1cccs1 (centres undefined)	i
CN(C)c1cccc(C(=O)N2CCC(Cn3c(C(F)(F)F)nc4ccccc43)CC2)c1	i
Cc1noc(CNC(=O)C2CCN(C(=O)CC(c3ccccc3)c3ccccc3)CC2)n1	i
COc1ccccc1-c1c(C(F)(F)F)oc2c3c(ccc2c1=O)OCN(CCc1cccs1)C3	i
Cn1cc(C(=O)NCCc2ccccc2)c(S(=O)(=O)N2CCN(c3cccc(Cl)c3)CC2)n1	i

(listing goes on)
SMILES	GIRK2 act
COC(=O)c1cn(Cc2ccc(OC)c(F)c2)nc1S(=O)(=O)N1CCSCC1	i
COCc1nn2c(c1-c1ccccc1)NC(=O)C2CC(=O)Nc1ccccc1C(=O)OC (centres undefined)	i
Cc1nc2sc(C(c3ccc(F)cc3)N3CC(C)CC(C)C3)c(O)n2n1 (centres undefined)	i
Cc1c(C(=O)N2CCN(S(=O)(=O)C3CC3)CC2)cnn1-c1ccccc1	i
CCc1ccc(OC)c(S(=O)(=O)N2CCN(C(=O)c3ccco3)CC2)c1	i
COc1ccc(C(O)CN2CCN(c3cccc(C)c3C)CC2)cc1OC (centres undefined)	i
CCCCS(=O)(=O)N1CCCC(c2nnc(-c3ccc4c(c3)OCO4)o2)C1 (centres undefined)	i
CCOc1cn(C)c(C(=O)Nc2ccc(Oc3ccccc3)cc2)cc1=O	i
COc1ccc(S(=O)(=O)Nc2nc3ccccc3nc2NCc2ccccc2)cc1	i
Cc1cc(S(=O)(=O)N2CC3(COC(C)(C)OC3)C2)c(Cl)cc1Cl	i
NC(=O)C1CCN(C(=O)c2c[nH]c3ccccc3c2=O)CC1	i
CC(NC(=O)CSc1ncc(S(=O)(=O)c2ccccc2)c(N)n1)c1ccccc1 (centres undefined)	i
Cc1ccc(C2c3c(oc4cc(C)c(Cl)cc4c3=O)C(=O)N2CCCN(C)C)cc1 (centres undefined)	i
COc1ccccc1OCC#CCNS(C)(=O)=O	i
COCCN1CCC(NC(=O)c2ccc(OC)cc2OC)CC1	i
O=C(Cc1ccc(F)cc1)NCC1CCN(C(=O)c2ccoc2)CC1	i
COc1ccc2[nH]cc(CCNC(=O)CN3C(=O)S/C(=C\c4ccc(F)cc4)C3=O)c2c1	i
CCOc1ccc(NC(=O)Cn2c(N3CCCCC3)nc(C)cc2=O)cc1	i
CCN(CC)C(=O)c1nc(SC)ncc1Cl	i
COc1ccc2c(C)c(C(=O)Nc3cc(C)ns3)oc2c1	i
Cc1onc(-c2ccccc2Cl)c1C(=O)N1CCC(CSCc2ccco2)CC1	i
COc1ccc(-c2cc(N3CCN(C(=O)COc4ccc(C)cc4OC)CC3)ncn2)cc1	i
CCc1nc2c(sc3cccc(F)c32)c(=O)n1CC(=O)Nc1ccccc1OC	i
Cc1nnc(NC(=O)C(C)n2nc(-n3cccn3)ccc2=O)s1 (centres undefined)	i
COCCNC(=O)Cn1c(=O)c2c(N3CCN(C(=O)c4ccco4)CC3)ccnc2n(C)c1=O	i
Cc1cccc(-c2nc(S(=O)(=O)c3ccc(Cl)cc3)c(N3CCOCC3)o2)c1	i
Cc1ccc(S(=O)(=O)c2nnn3c2nc(NCCCOC(C)C)c2ccccc23)cc1C	i
